Bioassay records from PubChem BioAssay.
NPYLR7 agonist: agonists of mosquito NPYLR7 receptor, primary screen, cell-based, Aedes aegypti, calcium fluorescence, mosquito biting behavior | activation, % at 10 µM | Aedes aegypti neuropeptide Y-like receptor 7 (NPYLR7) | HEK293T NPYLR7/Galpha15, GCaMP6s calcium fluorescence | 270,000 tested, 0.15% active | AID 1259423, 2018; in the data active means activation above about 40%;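 further: 0% = vehicle and 100% = reference agonist at the receptor; some compounds past the cut are filed as inactive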
NPYLR7 agonist max-min: further read-out of NPYLR7 agonist, marked with its call; activation, %; measured here: Max-Min RFU normalised activation; some inactives read as strong as hits;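 span of the calcium signal over five minutes; 0% = vehicle and 100% = native peptide agonist; compound fluorescence can raise it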
The depositor's hits bear a star. This is a subset; count on the stated rates, not on these rows.

Values run as follows: NPYLR7 agonist	NPYLR7 agonist max-min
> CC(C)(C)c1ccc(C(=O)N2CCN(C(C(=O)N3CCCC3)C3CCCC3)CC2)cc1 (configuration not stated)
  -7	-4
> Cn1c(C2CCN(C(=O)C3CC4CCC3C4)CC2)n[nH]c1=S (configuration not stated)
  5	3
> CC(C)(C)n1nc2c(c1NC(=O)c1ccc(Cc3ccccc3)cc1)CSC2
  -3	-4
> CC(NC(=O)Cn1c(=O)n(-c2cccc(Cl)c2)c(=O)c2ccc(Cl)cc21)c1ccccc1 (configuration not stated)
  -6	3
> Cc1ccc2[nH]c(=O)c(CCC(=O)O)c(C)c2c1
  4	0
> CC(O)c1cn(C2CCN(Cc3cccn3-c3cccnc3)CC2)nn1 (configuration not stated)
  19	2
> CCCCc1ccc(C(=O)N2CCN(c3nc(-c4ccc(Cl)cc4)nc(C)c3C)CC2)cc1
  -4	0
> COc1ccc(Cc2nc3c(c(=O)[nH]2)CN(S(=O)(=O)c2cccc4ccccc24)CC3)cc1
  15	22
> CC(=O)Nc1ccc(SCCCC(=O)N2CCN(c3ccc(F)cc3)CC2)nn1
  -2	-1
> Cc1noc(C)c1C(=O)NC1CCCCCC1
  1	-2
> Cc1ccc(C)c(C(C)NC(=O)c2ccccc2-c2nn[nH]n2)c1 (configuration not stated)
  3	3
> Cc1cnc(C(=O)N2CCCC(CCC(=O)NCc3ccc(F)c(F)c3)C2)cn1 (configuration not stated)
  17	7
> Cc1ccc(C(=O)N2CC(c3ccccn3)C2)c(F)c1F
  4	3
> CCC(CC)n1nc(C)cc1NC(=O)c1cccc2c1OCCO2
  1	-6
> COc1cc(/C=C/C(N)=O)cc(OC)c1OC
  0	6
> C[C@H]1CC2C3CCC4=CC(=O)C=C[C@]4(C)[C@@]3(Cl)[C@@H](O)C[C@]2(C)[C@@]1(O)C(=O)CO (some centres not stated)
  2	-1
> O=C1CC(c2ccco2)Cc2nc3nc(-c4ccccc4)nn3cc21 (configuration not stated)
  4	0
> CN(Cc1ccccc1)Cc1cc(-c2cccs2)on1
  5	2
> CC1c2[nH]c3ccccc3c2CCN1S(=O)(=O)N(C)C1CCCCC1 (configuration not stated)
  6	2
> Cc1cc(S(=O)(=O)N2CCN(c3ccc(C)c(Cl)c3)CC2)ccc1F
  1	-7
> Cc1nn(Cc2ccccc2)c(C)c1C(=O)NCc1ccco1
  4	6
> CC(C)(C)c1cc2nc(-c3ccccc3)cc(C(=O)NCCN3CCCC3)n2n1
  -12	-8
> CSc1nc(CN2CCCC2c2cccs2)cc(=O)[nH]1 (configuration not stated)
  -25	-25
> COc1ccc(-n2nnnc2SCC(=O)OC(C)(C)C)cc1
  -1	-7
> O=c1[nH]nc(C2CCC2)n1Cc1ccco1
  -1	1
> O=C(NCC(=O)N1CCOC(COCc2ccccc2)C1)c1cccc(C(F)(F)F)c1 (configuration not stated)
  17	24
> Nc1nc2[nH]cc(CCc3ccc(C(=O)N[C@@H](CCC(=O)O)C(=O)O)cc3)c2c(=O)[nH]1
  9	9
> CC(C)CN(CCC(=O)NCCc1ccccc1)c1nc(Cc2ccccc2)ns1
  -4	-14
> COc1ccccc1N1CCN(c2ccc(NC(=O)CC(C)CC(C)(C)C)cc2C(=O)NC2CC2)CC1 (configuration not stated)
  19	16
> CC(OC(=O)c1cccc(S(=O)(=O)NC2CC2)c1)c1ccncc1 (configuration not stated)
  3	4

Three entries picked at random from the list so far, as already listed:
Values run as follows: NPYLR7 agonist	NPYLR7 agonist max-min
> O=c1[nH]nc(C2CCC2)n1Cc1ccco1
  -1	1
> CSc1nc(CN2CCCC2c2cccs2)cc(=O)[nH]1 (configuration not stated)
  -25	-25
> COc1ccccc1N1CCN(c2ccc(NC(=O)CC(C)CC(C)(C)C)cc2C(=O)NC2CC2)CC1 (configuration not stated)
  19	16

Additional records:
Values run as follows: NPYLR7 agonist	NPYLR7 agonist max-min
> O=C(NCc1ccncc1)c1ccc(CSc2nc(N3CCCC3)cc(C(F)(F)F)n2)o1
  0	6
> COc1ccc(CNC(=O)c2cc(Cn3nc(C)cc3C)[nH]n2)c(OC)c1
  6	7
> CC(C)COC(=NCCN1CCCCC1)NC(=O)c1cccs1
  12	15
> Cc1ccccc1S(=O)(=O)NC(=O)C1(C)CCN1C(=O)C(C)(C)c1ccccc1 (configuration not stated)
  -1	-3
> Cc1cccc(C(=O)N(C)CC(=O)NC(C)(C)C)c1C
  0	1
> O=C(/C=C/c1ccccc1)Nc1ccc(Nc2cc(-n3cccn3)ncn2)cc1
  -4	-11
> O=C(COc1ccccc1)NC1CCN(c2ccccc2C(=O)NCc2ccc(F)cc2)CC1
  -3	6
> O=C([C@@H](O)Cc1ccccc1)N1CCCn2cncc2C1
  10	4
> O=C(/C=C/c1cccc([N+](=O)[O-])c1)N(Cc1cccnc1)c1nc2c(F)cccc2s1
  -8	-8
> CC1(C2CC2)NC(=O)N(CC2Cc3ccccc3O2)C1=O (configuration not stated)
  5	2
> CC(Sc1nccn1-c1ccc(C(C)C)cc1)C(=O)NC1CCS(=O)(=O)C1 (configuration not stated)
  -5	-5
> CCc1ccc(C(=O)NC(=S)Nc2cc(C)ccc2O)cc1
  1	0
> O=C(Nc1nc(-c2ccccc2)ns1)c1ccc(Br)cc1
  7	8
> CCCN(CCC)S(=O)(=O)c1ccc(C(=O)NC)cc1
  1	7
> O=C(CC(c1cccc(F)c1)c1cn(Cc2ccccc2)c2ccc([N+](=O)[O-])cc12)NCc1cccc(C(F)(F)F)c1 (configuration not stated)
  0	9
> c1coc(CNc2nc(N3CCCCC3)nc(N3CCOCC3)n2)c1
  -12	-13
> Cc1cc(CNc2cc(Cl)ccc2Sc2ccc(F)cc2)no1
  2	0
> CC1=CCC2COC(c3ccc[n+](C)c3)C1C2 (configuration not stated)
  2	-1
> COc1cccc(C(N)=O)c1OCC(=O)NCC(F)(F)F
  6	4
> CC1ON=C(c2ccc3[nH]ccc3c2)N(Cc2cccc(C#N)c2)C1=O (configuration not stated)
  10	6
> Cn1cc(S(=O)(=O)NCCN2CCCc3cc(F)ccc32)cn1
  7	5
> CC(=O)NS(=O)(=O)c1ccc(NC(=O)c2ccccc2C(=O)O)cc1
  -2	-9
> CCN(CC)C(=O)CSc1ncnc2c1nnn2-c1ccc(OC)cc1
  8	15
> Cc1ccc(C(C)NS(=O)(=O)/C=C/c2ccccc2)o1 (configuration not stated)
  -3	-5
> CCOc1ccccc1NC(=O)N1CCSC1c1cccc(F)c1 (configuration not stated)
  15	21
> Cc1ccccc1CO[C@]1(C(=O)NCCN2CCOCC2)CC(OCc2cccc(F)c2F)[C@@H]2OC(C)(C)O[C@@H]2C1 (some centres not stated)
  19	16
> CN(Cc1ccc(F)cc1F)S(=O)(=O)C1CS(=O)(=O)c2ccccc21 (configuration not stated)
  -1	-1
> C=CC=COCC(=O)N=c1c(C#N)cc2c(=O)n3cccc(C)c3nc2n1CCCC
  -1	-2
> CCn1c(C2CCN(C(=O)CCc3cn[nH]c3)CC2)nn(C)c1=O
  0	-2
> COc1ccc(N=Cc2cc(Br)cc(Br)c2O)c(OC)c1
  3	2
> O=C1NC(=O)/C(=C/c2cn(Cc3ccccc3)nc2-c2cccnc2)S1
  7	5
> CC(C)CCn1c(=O)c2c(nc3n2CCCN3c2ccc(F)cc2)n(C)c1=O
  0	1
> O=C(NC1CCOc2ccccc21)c1nc(N2CCCC2)ncc1Cl (configuration not stated)
  -2	-3
> COc1cccc(NC(=O)NCCOc2ccc3nnc(-c4ccccc4)n3n2)c1
  -3	-3
> Cc1cc(=O)n2[nH]c(NC(=O)C(C)C)nc2n1
  -1	-9
> Cc1cc(C)n2nc(SCC(=O)Nc3c(F)cccc3F)nc2n1
  8	6
> Cc1ccc2c(c1)c(CNC(C)COc1ccccc1)nn2C (configuration not stated)
  -5	-6
> COc1cccc(CNC(=O)c2ccc(COc3cccc4c3OC(C)(C)C4)cc2)c1
  -4	-2
> O=C(CCN(CCCN1CCOCC1)c1nc(-c2ccccc2Cl)nc2ccccc12)N1CCN(c2ccccc2F)CC1
  4	20
> CN(Cc1noc(C(C)(C)C)n1)Cc1ccccc1N1CCCCC1
  2	-1
> CN1CC2(CCN(C(=O)c3cc(C4CC4)[nH]n3)C2)OC1=O (configuration not stated)
  -4	-5
> CC(C)S(=O)(=O)c1ccc(F)c(C(=O)NCCc2ccc(F)cc2)c1
  5	4
> CCOC(=O)c1sc(NS(=O)(=O)c2ccc(Cl)c(Cl)c2)cc1C
  -6	-5
> CCCOC(=NC(C)CCCN(CC)CC)NC(=O)c1ccc2c(c1)OCO2 (configuration not stated)
  -6	4
> Cc1ccc(S(=O)(=O)NCC(C(C)C)N2CCN(C)CC2)s1 (configuration not stated)
  1	-14
> O=C(OCc1ccccn1)c1ccccc1S(=O)(=O)N1CCCCC1
  8	5
> CCc1nc(N2CC(c3ccncc3)C2)ncc1C
  5	5
> Cc1ccc2c(c1)CCCN2CC(=O)NCc1ccc(S(N)(=O)=O)cc1
  -2	-3
> CC1CC(C)CN(C(C)(C)CNC(=O)C2CN(C)CCO2)C1 (configuration not stated)
  1	0
> CN(C)N=CC=C1CCC(=Cc2cccs2)C1=O
  4	3

Other compounds
Values run as follows: NPYLR7 agonist	NPYLR7 agonist max-min
> Cc1cnc(C(=O)NC2CCCCC2C(C)(C)C)cn1 (configuration not stated)
  -5	-6
> COC[C@@H]1CCCN1C(=O)c1ccc2nc(-c3ccc(O)c(OC)c3)[nH]c2c1
  2	17
> O=c1[nH]c2ccccc2n1CN1CCc2ccccc2C1
  -4	-5
> CN1CCN(n2c3c(c(SCC(=O)NC4CCCCC4)nc2=O)CCCC3)CC1
  1	-3
> CCOC(=O)c1sc(NC(=O)CCCl)c(C(=O)OCC)c1C
  -1	-8
> O=C(c1ccc2c(c1)OCO2)C1CCCN(Cc2nc3ccc(F)cc3[nH]2)C1 (configuration not stated)
  2	-3
> Cc1sc(N2C(=O)c3ccccc3C2=O)c(C#N)c1C
  -1	-2
> Cn1cnc2c1c(=O)n(CCCSc1nnnn1Cc1cccs1)c(=O)n2C
  2	7
> COc1ccccc1N1CCN(C(=O)c2csc(CSc3nnc(-c4ccncc4)n3-c3cccc(C(F)(F)F)c3)n2)CC1
  1	6
> COc1ccc(N2CCN(C(=O)C3CC=CCC3C(=O)NCCc3ccc(C)cc3)CC2)cc1 (configuration not stated)
  -7	-11
> CC1(Cc2ccc(C(=O)c3ccccc3)cc2)C(=O)Nc2c(Cl)cccc21 (configuration not stated)
  3	2
> CCC(C)CN(C)c1ccc(F)cc1C=O (configuration not stated)
  11	8
> CC(c1ccon1)N(C)C(=O)c1cccc2ccnn12 (configuration not stated)
  14	4
> CC(=O)c1ccc(C(=O)N(Cc2cccnc2)c2nc3ccc(Br)cc3s2)cc1
  -10	-5
> CCCCN(CC(=O)N1c2ccccc2-n2cccc2C1c1cccc(C)c1)C(=O)Nc1ccc(C)c(C)c1 (configuration not stated)
  2	18
> CCCCN(CC(=O)Nc1cc(-c2ccccc2)nn1-c1ccc(Cl)c(Cl)c1)C(=O)Nc1ccc(SC)cc1
  21	18
> Cc1c(C(=O)NC2CCCC2)sc(=O)n1Cc1ccc(Cl)c(Cl)c1
  -11	-2
> Fc1ccccc1CCNc1ncnc2ccc(Cl)cc12
  -3	-5
> CCN1C(=O)/C(=C2\SC(=S)N(NC(=O)c3ccccc3)C2=O)c2ccccc21
  1	6
> Cc1cc(C)nc(-n2ncc3c2CC(c2ccccc2C)CC3=O)n1 (configuration not stated)
  20	11

Sorted by molar mass (smallest number first): six of the compounds above
Values run as follows: NPYLR7 agonist	NPYLR7 agonist max-min
> CCC(C)CN(C)c1ccc(F)cc1C=O (configuration not stated)
  11	8
> Cc1cc(C)nc(-n2ncc3c2CC(c2ccccc2C)CC3=O)n1 (configuration not stated)
  20	11
> CC1(Cc2ccc(C(=O)c3ccccc3)cc2)C(=O)Nc2c(Cl)cccc21 (configuration not stated)
  3	2
> CCN1C(=O)/C(=C2\SC(=S)N(NC(=O)c3ccccc3)C2=O)c2ccccc21
  1	6
> CCCCN(CC(=O)N1c2ccccc2-n2cccc2C1c1cccc(C)c1)C(=O)Nc1ccc(C)c(C)c1 (configuration not stated)
  2	18
> CCCCN(CC(=O)Nc1cc(-c2ccccc2)nn1-c1ccc(Cl)c(Cl)c1)C(=O)Nc1ccc(SC)cc1
  21	18

(list continues)
Values run as follows: NPYLR7 agonist	NPYLR7 agonist max-min
> COc1ccc(CCN(C)c2cc(Cl)nc(SCC(=O)N(CCN(C)C)Cc3ccccc3)n2)cc1OC
  23	27
> O=C(NC1CCCN(CC2CCCCC2)C1)c1cccc(-n2cnnc2)c1 (configuration not stated)
  20	5
> Cc1cccc(-c2noc(N3CCOCC3)c2CN(Cc2ccco2)C(=O)c2ccc(Cl)cc2)c1
  9	13
> O=C(NCCc1cccs1)Nc1ccc2nc([C@@H]3O[C@H](CO)[C@@H](O)[C@H]3O)[nH]c2c1
  6	17
> Cc1cnn(C(C)C(C)NC(C)c2nc(C3CC3)no2)c1 (configuration not stated)
  -13	-13
> COc1ccc(CN(Cc2nc3cc(C)ccc3o2)C(=O)c2cccc(Cl)c2)cc1
  1	-2
> CCOC(=O)C(=O)N(C)c1c(CC)nc2c(OCc3cccc(OC)c3)cccn12
  -3	-4
> CCONC(=O)NC(c1ccc(OC)cc1)C(C)C (configuration not stated)
  13	7
> CCOCCCn1c(SCC(=O)N2CCOCC2)nc2cc(S(=O)(=O)N3CCOCC3)ccc21
  7	3
> COc1cc(Nc2nnc(C(O)CC(C)C)s2)cc(OC)c1OC (configuration not stated)
  13	12
> CC(C)c1nnc(NC(=O)CSc2nnc(NC(=O)c3cccs3)s2)s1
  5	10
> COc1ccc(-n2c(=O)[nH]c3c(C(N)=O)nc(-c4ccc(O)cc4)nc32)c(OC)c1
  2	0
> O=C(c1ccc(F)cc1)N1CCN(S(=O)(=O)c2ccc(F)cc2F)CC1
  2	2
